KCNQ2 pot: potentiators of rat KCNQ2 potassium channel. Potassium voltage-gated channel subfamily KQT member 2 (Rattus norvegicus), O88943. CHO-K1 KCNQ2, FluxOR thallium flux fluorescence; active compounds read high. B-score at 10 µM. 0.54% of 310,000 active;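 active means fluorescence ratio B-score at least 3 SD of library B-scores, with initial fluorescence B-score within 3 SD, cut at about 5.3 in these data; same plate scores as AID 2156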;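 further: B-score of peak minus minimum over baseline fluorescence ratio after K+ and Tl+ stimulus; positive B-score means potentiation of KCNQ2 with more thallium influx and brighter signal; only the inactives scoring about 0 or higher are listed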
Target sequence (O88943 whole entry, looked up): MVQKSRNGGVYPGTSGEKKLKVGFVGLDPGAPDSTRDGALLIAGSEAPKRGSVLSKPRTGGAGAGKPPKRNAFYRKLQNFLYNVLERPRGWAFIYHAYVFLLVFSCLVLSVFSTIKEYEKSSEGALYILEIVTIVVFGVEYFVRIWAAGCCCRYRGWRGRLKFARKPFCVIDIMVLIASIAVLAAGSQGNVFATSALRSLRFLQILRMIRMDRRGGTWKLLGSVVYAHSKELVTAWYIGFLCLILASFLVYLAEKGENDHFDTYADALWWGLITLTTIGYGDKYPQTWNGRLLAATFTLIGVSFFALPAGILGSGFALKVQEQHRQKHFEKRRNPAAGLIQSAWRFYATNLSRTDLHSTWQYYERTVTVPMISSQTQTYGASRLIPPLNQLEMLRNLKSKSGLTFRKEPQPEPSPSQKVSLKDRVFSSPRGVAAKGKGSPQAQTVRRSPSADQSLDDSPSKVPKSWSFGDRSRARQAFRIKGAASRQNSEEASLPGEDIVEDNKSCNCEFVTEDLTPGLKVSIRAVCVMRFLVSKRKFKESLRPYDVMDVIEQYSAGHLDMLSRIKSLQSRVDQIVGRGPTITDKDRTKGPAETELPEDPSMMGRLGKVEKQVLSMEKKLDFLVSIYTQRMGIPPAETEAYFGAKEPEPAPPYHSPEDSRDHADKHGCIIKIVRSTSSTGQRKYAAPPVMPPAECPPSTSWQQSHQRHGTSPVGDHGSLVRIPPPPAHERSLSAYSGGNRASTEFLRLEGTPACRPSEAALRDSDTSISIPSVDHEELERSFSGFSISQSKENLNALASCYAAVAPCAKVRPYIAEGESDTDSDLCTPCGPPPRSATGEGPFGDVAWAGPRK
KCNQ2 pot baseline: recorded beside KCNQ2 pot, whose call it bears; B-score; compound at 10 µM; measured here: initial fluorescence intensity artifact check;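 brightness before thallium and not channel activity; 0 = typical well and far values either way flag optical interference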
Starred values were filed as active, the others as inactive.

Second line of a record: KCNQ2 pot | KCNQ2 pot baseline
> CC1(C)CC(=O)C(C(=O)c2ccccc2)C(=O)C1Cl (centres undefined)
    2.9 | -2
> CCOC(=O)N1CCN(C(=O)c2cc3cc(Cl)ccc3[nH]2)CC1
    0.01 | 1.2
> Cc1cc(C)nc(Sc2ccc3nnnn3n2)n1
    0.02 | -0.54
> O=C(COC(=O)C12CC3CC(CC(C3)C1)C2)Nc1nc2c(F)c(F)c(F)cc2s1
    0.69 | 0.01
> COc1ccc(COCC(O)CN2CCC(C(N)=O)CC2)cc1OC (centres undefined)
    0.02 | -0.47
> Cc1cc(=O)oc2cc(OCC(=O)N3c4ccccc4CC3C)ccc12 (centres undefined)
    0.22 | -2
> O=C(CSc1nnc(Nc2ccccc2)s1)Nc1ccc(S(=O)(=O)N2CCOCC2)cc1
    1.1 | -0.75
> COc1ccccc1CNC(=O)c1nccnc1CO
    0.51 | 1.5
> COc1ccc(NC(=O)CCc2nc(-c3ccc(C)cc3)no2)c(OC)c1
    0.3 | 0.22
> COC(=O)c1ccccc1NC(=O)CSc1nncn1-c1ccccn1
    0.47 | -0.96
> O=c1[nH]c(CSc2nnc3ccccn23)nc2cc(C(F)(F)F)ccc12
    2.2 | 1.2
> Cc1ccccc1C(=O)N1CCC(C(=O)Nc2ccccc2N2CCCC2)CC1
    0.76 | 0.72
> CCOC(=O)/C(=N\Nc1ccccc1Cl)N1CCN(C)CC1
    1.1 | -0.05
> Cc1ccccc1-c1nc(CN2CCC(C(=O)NCCCN3CCOCC3)CC2)c(C)o1
    0.38 | 0.53
> O=C(C1CCCO1)N1CCN(c2c3c(nc4cc(-c5ccc(F)cc5)nn24)CCC3)CC1 (centres undefined)
    0.55 | 0.79
> COc1cc(C2N(c3ccc(Cl)cc3)C(=O)C3CCCN32)cc(OC)c1OC (centres undefined)
    0.96 | -2.6
> CC(=O)c1ccc(N2CCN(C(=S)Nc3ccccc3)CC2)cc1
    0.56 | 0.15
> CCC12CN3CC(CC)(CN(C1)C3c1ccc(OC(C)C)cc1)C2=O (centres undefined)
    0.22 | -1
> O=C(Cc1ccc(Cl)cc1)Nc1ccc(SC(F)F)cc1
    2.3 | -1.8
> Cc1ccc(C2CC(c3ccc(C)cc3)n3nc(N)nc3N2)cc1 (centres undefined)
    0.9 | 0.08
> COc1ccc(C(=O)Nc2cccc(NC(=O)c3ccc(OC)c(OC)c3)n2)cc1OC
    1.8 | 0.67
> CC(=O)CCc1c(C)nc2ccc(C(=O)O)cc2c1Cl
    0.56 | -0.28
> Cc1ccc2c(c1)C(c1ccccc1)N(C(=O)c1ccccc1[N+](=O)[O-])CC(=O)N2 (centres undefined)
    1 | -0.02
> COc1ccc(-c2nnc(SCC(=O)N/N=C/c3ccccc3C(=O)O)n2-c2ccc(Cl)cc2)cc1
    0.67 | 1.7
> CCCn1c(CN2CCN(C(=O)OCC)CC2)nc2cc(NC(=O)CC)ccc21
    0.76 | 0.78
> CC(C)COc1ccc2[nH]c3c(c2c1)CCCC3=O
    0.32 | -0.04
> COc1ccc(/C(C)=N/NC(=S)NCc2ccco2)cc1
    0.6 | 0.23
> O=C(Nc1cccc(C(F)(F)F)c1)C1C2CC3OC(=O)C1C3C2 (centres undefined)
    0.68 | 0
> Clc1ccc2c(c1)[C@H]1OCC[C@H]1[C@@H](c1ccco1)N2
    0.05 | -1.4
> COc1cc(-c2cc(C(=O)O)c3cc4c(cc3n2)OCCO4)cc(OC)c1OC
    0.45 | 0.75
> COc1ccc(-c2csc(N(CCCN(C)C)C(=O)c3ccccc3C)n2)cc1
    2.4 | -0.42
> NS(=O)(=O)c1ccc(Sc2ccc3ccccc3c2)nc1
    1.7 | 0.86
> CN(CC(=O)Nc1ccccc1Br)C(=O)CNC(=O)c1ccc2c(c1)OCO2
    0.9 | -1.8
> COc1ccc(CNS(=O)(=O)c2ccc(-n3cnnn3)c(OC)c2)cc1
    0.66 | -0.02
> O=C(CN1CCN(S(=O)(=O)N2CCCCCC2)CC1)Nc1cc(Cl)ccc1Cl
    1.1 | 1.3
> COc1cccc(CNC(=O)c2cc(COc3c(F)cccc3F)on2)c1
    0.06 | 2.5
> N#Cc1nc(Cc2ccccc2)oc1N1CCCC1
    0.12 | -0.63
> O=C(COc1ccc(-n2ccnc2)cc1)Nc1cccc(Cl)c1
    1.6 | 0.45
> CCN1CCN(CC(=O)NC2CCCCC2)C(=O)C1=O
    1.4 | -2.8
> CS(=O)(=O)NN1C(=O)c2ccccc2NC1c1ccccc1O (centres undefined)
    0.73 | -1.8
> COC(=O)Cn1ccc(-c2ccc(Cl)cc2)c(C#N)c1=O
    0.97 | 0.26
> O=C(CSc1nnc(-c2ccccc2F)n1C1CC1)Nc1ccc2[nH]c(=O)[nH]c2c1
    0.89 | 0.09
> CN(C)c1ccc(NC(=O)CSCc2nc3c(nnn3Cc3ccc(F)cc3)c(=O)[nH]2)cc1
    1.1 | -0.61
> N=c1c(C(=O)NCCc2ccccc2)cc2c(=O)n3ccccc3nc2n1CC1CCCO1 (centres undefined)
    1.4 | -0.54
> C/C(=C\C(=O)c1ccc(Br)cc1)NNC(=O)c1ccc(O)cc1
    0.46 | 1.1
> Oc1ccc2c(c1)oc1cc(O)ccc12
    1.1 | -0.28
> CCCCOC(=O)C1=C(C)Nc2ncnn2C1c1ccc(OC)c(OC)c1 (centres undefined)
    0.08 | -2
> O=C(CSc1ncnc2nc[nH]c12)N1CCOCC1
    0.35 | -1.3
> CCC(C)c1ccc(S(=O)(=O)Nc2cccnc2)cc1 (centres undefined)
    1.8 | 0.01
> COc1ccccc1NC(=O)CSc1nnc(C)o1
    0.66 | 1.1
> CC(=O)N(Cc1cc2cc(C)c(C)cc2n2nnnc12)CC1COCCO1 (centres undefined)
    1.2 | 2
> O=C(Nc1ccccc1C(=O)NCCc1ccc(O)cc1)c1ccco1
    2.5 | -0.71
> O=C(NC1CC1)c1ccc2c(Cl)c3c(nc2c1)CCCC3
    2.1 | -3.3
> O=C(Nc1sc2c(c1C(=O)O)CCCC2)C(=O)N1CCOCC1
    0.95 | 1
> O=C(CSc1ncccn1)NCc1ccc2c(c1)OCO2
    1.1 | -1.2
> S=C(NCc1ccccc1)Nc1cccc(Cl)c1
    0.62 | 1.6
> COc1cccc(-n2c(N)c(-c3nc4ccccc4[nH]3)sc2=S)c1
    1.5 | -2.6
> O=C(NCc1ccncc1)C1CCN(S(=O)(=O)c2cccc(C(F)(F)F)c2)CC1
    1.4 | -0.73
> S=c1[nH]nc(Cn2cnc3ccccc32)n1-c1ccccc1
    1.8 | 0.93
> Clc1cccc(NCc2ccccc2)n1
    1.7 | -1.1

Later entries.
Second line of a record: KCNQ2 pot | KCNQ2 pot baseline
> CCOC(=O)C1CCCN(C(=O)c2cc3cc4ccc(OC)cc4nc3o2)C1 (centres undefined)
    0.01 | 0.01
> O=C1NN(c2ccccc2)C(=O)/C1=C/c1ccc(Sc2ccc(Cl)cc2)o1
    0.22 | -0.17
> O=C(O)C1CC=CCC1C(=O)Nc1cccnc1 (centres undefined)
    0.51 | 0.58
> Cc1nnc(SCC(=O)Nc2nsc(-c3ccc(C(C)(C)C)cc3)n2)s1
    0.64 | 0.65
> COc1ccc(C)cc1NC(=O)CCNC(=O)c1ccco1
    0.11 | -1.5
> CC(=O)NC(CCS(C)(=O)=O)C(=O)Nc1ccccc1 (centres undefined)
    0.53 | 0.04
> COc1cccc(OCCn2cc(C(C)=O)c3ccccc32)c1
    0.83 | -1.7
> CCOC(=O)c1n[nH]n(-c2cc(Cl)cc(Cl)c2)c1=O
    0.01 | 0.31
> COc1ccc(C(=O)OCC[N+]2(C)CCOCC2)cc1
    2.4 | -0.01
> Oc1ccccc1CNn1cnnc1
    0.05 | -1.5
> CN(C(=O)COC(=O)c1nc(Cl)ccc1Cl)c1ccccc1
    1.3 | -0.33
> Cc1cc(=O)oc2cc(NC(=O)c3ccccc3Cl)ccc12
    0.16 | 1.9
> O=C(CN(CC(=O)N1CCOCC1)S(=O)(=O)c1ccc(Br)s1)N1CCOCC1
    0.22 | 0.05
> CC(=O)C1=C(O)C(=O)N(c2ccc(Br)cn2)C1c1ccccc1F (centres undefined)
    0.03 | -0.61
> O=C1C=C(NCc2ccc(Cl)c(Cl)c2)CC1
    0.33 | 1.3
> N#C/C(=C(/O)Cc1cccc2ccccc12)c1nc2ccccc2s1
    0.18 | -0.01
> C=CCNCc1cc(=O)n2c(-c3ccccc3)csc2n1
    0.97 | -0.51
> Cc1cc(N2CCCC2)ccc1NC(=O)COc1cccc(C(F)(F)F)c1
    6.4* | 2*
> Cc1ccc2c(c1)N(C(=O)CCC(=O)N1CCN(c3ccccn3)CC1)CC(C)O2 (centres undefined)
    1.5 | 0.09
> O=C(CCCNS(=O)(=O)c1ccc(Br)cc1)N1CC[C@@]2(O)CCCC[C@H]2C1
    0.29 | 0.65

Part of the list above, with each value named:
CN(C(=O)COC(=O)c1nc(Cl)ccc1Cl)c1ccccc1
- KCNQ2 pot = 1.3
- KCNQ2 pot baseline = -0.33
Cc1cc(=O)oc2cc(NC(=O)c3ccccc3Cl)ccc12
- KCNQ2 pot = 0.16
- KCNQ2 pot baseline = 1.9
O=C(CN(CC(=O)N1CCOCC1)S(=O)(=O)c1ccc(Br)s1)N1CCOCC1
- KCNQ2 pot = 0.22
- KCNQ2 pot baseline = 0.05
CC(=O)C1=C(O)C(=O)N(c2ccc(Br)cn2)C1c1ccccc1F (centres undefined)
- KCNQ2 pot = 0.03
- KCNQ2 pot baseline = -0.61

Going on with the list.
Second line of a record: KCNQ2 pot | KCNQ2 pot baseline
> CC1CCCN(S(=O)(=O)c2cnc[nH]2)C1 (centres undefined)
    1 | 0.1
> Cc1ccc(-c2csc(N(Cc3ccccc3)C(=O)COc3ccccc3)n2)cc1
    0.9 | 0.28
> c1ccc(Cn2nnnc2C(c2ccccn2)N2CCN(c3ccccc3)CC2)cc1 (centres undefined)
    0.1 | -1.9
> C/C(Nc1ccc(F)cc1)=C(/C#N)C(N)=O
    0.54 | 0.3
> O=[N+]([O-])c1cccc(-c2nc(-c3ccccn3)no2)c1
    0.93 | -0.37
> CCS(=O)(=O)c1nc(NC(C)=O)n[nH]1
    0.35 | -0.17
> Cc1cc2c3c(c1C)C1(C(=O)N3C(C)(C)CC2C)C(C#N)=C(N)Oc2cc(O)ccc21 (centres undefined)
    0.57 | -0.38
> CCOc1cccc(NC(=O)Cc2cccs2)c1
    2.1 | -0.51
> O=C(O)CCc1ccc(-c2ccccc2)n1NC(=O)c1ccco1
    0.2 | 0.3
> COc1cc([N+](=O)[O-])cc2sc(NC(=O)C(C)(C)C)nc12
    0.96 | -1.4
> COc1cccc(CNC(=O)CN(C)S(=O)(=O)c2cccc3cccnc23)c1
    1.9 | -1
> COCCCNC(=S)N1CCN(c2nc(-c3cccc(OC)c3)cs2)CC1
    0.3 | -0.06
> CCCCn1c(N)c(N(CC(C)C)C(=O)c2ccc(OCC3CCCO3)cc2)c(=O)[nH]c1=O (centres undefined)
    0.11 | -0.23
> O=C(Oc1ccc(-c2cnc3ccccc3n2)cc1)c1ccco1
    1.1 | -1.1
> Cc1cc(C)n(-c2nc3c(c(=O)[nH]c(=O)n3C)n2Cc2ccc(F)cc2)n1
    0.36 | -0.1
> O=C(N=Nc1c(O)n(C2OC(=O)c3ccccc32)c2ccccc12)c1ccco1 (centres undefined)
    0.38 | 0.52
> CCCN(CCC)C(=O)C1CC(=O)OC12CCOC(C)(C)C2 (centres undefined)
    1.1 | 0.17
> C/C(=N\OCC(=O)O)c1ccc(Cl)cc1
    0.08 | -0.88
> COC(=O)c1c(NC(=O)c2ccccc2)sc(C(N)=O)c1C
    1.4 | 3.8
> COc1ccc2nc(/N=C(\N)NC(=O)C(C)(C)C)nc(C)c2c1
    1 | 0.26
> O=c1c(-c2cccc([N+](=O)[O-])c2)[n+]([O-])c2ccccc2n1O
    1.2 | 0.86
> CC(C)C(OC(=O)c1ccco1)C(=O)NC1CCCCC1 (centres undefined)
    0.1 | -0.04
> O=C(NC(=S)Nc1ccc2oc(=O)ccc2c1)c1ccco1
    0.32 | -1.8
> O=C(CSC(=S)N1CCOCC1)c1ccccc1
    0.2 | 0.32
> COc1ccccc1NC(=O)CSc1nccc(=O)[nH]1
    0.76 | 0.21
> CCOC(=O)C1(CC2CCCCO2)CCN(Cc2cc3ccccc3[nH]2)CC1 (centres undefined)
    8.4* | 0*
> CC[n+]1c(P(=O)([O-])c2ccccc2)[nH]c2ccccc21
    0.32 | -1.4
> CCN(CC)CC1(O)CCN(C(=O)c2ccc(Cl)c(Cl)c2)CC1
    0.47 | -0.89
> O=C(CNC(=O)c1ccco1)N/N=C/c1ccccc1[N+](=O)[O-]
    0.27 | -1.2
> CNC(=O)c1cc(S(=O)(=O)N2CC(C)OC(C)C2)ccc1N1CCCCC1 (centres undefined)
    0.52 | -2
> Cc1ccc(C(=O)N2CCN(Cc3ccc4c(c3)OCO4)CC2)cc1C
    0.23 | -0.16
> CCOC(=O)c1c(C(=O)OCC)c(C)n(Cc2cc(OC)c(OC)c(OC)c2)c1C
    0.32 | -0.64
> Cc1cccc(NC(NC(=O)c2ccccn2)C(Cl)(Cl)Cl)c1 (centres undefined)
    0.18 | -1.8
> Cc1ccc(N=C2C(=O)Nc3ccccc32)cc1C
    0.17 | -2.1
> Cc1ccc(S(=O)(=O)N2CCOCC2)cc1NC(=O)CNC1CCCC1
    0.25 | 0.36
> CCOc1ccc(NC(=O)Cn2c(=O)n(CC3CCCO3)c(=O)c3ccccc32)cc1 (centres undefined)
    0.11 | 0.03

Among those listed so far, these have a CF3 group.
Second line of a record: KCNQ2 pot | KCNQ2 pot baseline
> O=c1[nH]c(CSc2nnc3ccccn23)nc2cc(C(F)(F)F)ccc12
    2.2 | 1.2
> O=C(Nc1cccc(C(F)(F)F)c1)C1C2CC3OC(=O)C1C3C2 (centres undefined)
    0.68 | 0
> O=C(NCc1ccncc1)C1CCN(S(=O)(=O)c2cccc(C(F)(F)F)c2)CC1
    1.4 | -0.73
> Cc1cc(N2CCCC2)ccc1NC(=O)COc1cccc(C(F)(F)F)c1
    6.4* | 2*

Source: PubChem (Johns Hopkins Ion Channel Center)

The list is partial. The share of hits here may be higher or lower than overall.
